Assay outcomes from PubChem.
VACV E9 pol inh = vaccinia E9 polymerase processive synthesis inhibitors, primary screen, biochemical, absorbance. normalized absorbance, % (test concentration not listed). Vaccinia virus DNA polymerase (E9) processive complex. 46,000 tested, 0.94% active. in vitro processive DNA synthesis, absorbance read-out; stronger effect = lower value; some inactives read as strong as hits;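 active means replicate mean up to 90% and picked by the depositor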;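 further: 100% = median of the test wells of a plate; 100 nL library stock went into each well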
Active calls of the source: *. The list is partial; the hit share may differ from the screen's.

mol	VACV E9 pol inh
O=C(O)c1oc(C(=O)O)c(OCc2ccccc2)c1OCc1ccccc1	95
COc1ccc(Cc2nc3ccccc3[nH]2)cc1OC	108
O=C(/C=C/c1ccc2c(c1)OCO2)NC(=S)NC1CCCC1	100
CCN(CC)CCOc1ccc2c(c1)C(=O)c1cc(OCCN(CC)CC)ccc1-2	30*
Cc1ccc(-c2nnc(N3CCOCC3)c3ccccc23)cc1C	99
CCOC(=O)c1cccc(NC(=O)N2CCC(CN3CCCCC3)CC2)c1	92
COc1ccccc1-c1c(C)nn2c(N3CCCC3)cc(C)nc12	102
CN1CCC(CNC(=O)Nc2csc3ccccc23)CC1	111
COC(=O)CCNc1ccccn1	100
CN(CC(O)COc1ccc2oc3ccccc3c2c1)C1CCCCC1 (centres undefined)	103
CCCSc1nnc(CNC(=O)c2cccc(F)c2)n1-c1ccc(F)cc1	99
Cc1cccc(C)c1NC(=O)C1(N(Cc2ccccc2)C(=O)c2ccc(-n3cnnn3)cc2)CCCC1	100
COc1cc(OC)nc(C(=O)c2ccc(Cl)cc2)n1	100
Cc1ccc(S(=O)(=O)/N=C2\C=CC(=O)c3ccccc32)c(C)c1	100
CCOC(=O)C(N)Cc1ccccc1 (centres undefined)	96
C(#Cc1ccccc1)CN1CCN(C(c2ccccc2)c2ccccc2)CC1	103
O=C(c1ccc2nc3ccccc3c(=O)n2c1)N1CCN(c2ccc(Cl)cc2)CC1	101
O=C1c2ccccc2C(=O)N1Nc1ccc(N2CCOCC2)cc1	99
Cc1c(C(N)=O)sc2nc[nH]c(=O)c12	102
CC1CC(C)CN(C(=O)C2c3ccccc3Oc3ccccc32)C1 (centres undefined)	100

No new results follow: 2 of the compounds above.
mol	VACV E9 pol inh
O=C(O)c1oc(C(=O)O)c(OCc2ccccc2)c1OCc1ccccc1	95
COc1ccc(Cc2nc3ccccc3[nH]2)cc1OC	108

(more compounds)
mol	VACV E9 pol inh
CC1CN(C)C(c2ccccc2)C(C)C12NC(=O)NC2=O (centres undefined)	98
Cc1cc(C)nc(SCc2nnc(SCC(=O)NCc3ccccc3)o2)n1	100
O=C1Nc2ccccc2/C1=C/C=C/c1ccco1	66*
Cc1cc(C)n2cc(-c3ccc(Cl)cc3)c(C(=O)O)c2n1	68
O=C(NCc1ccc2c(c1)OCO2)c1cc2ccccc2o1	100
N#CC1=C(N)Oc2n[nH]c(-c3ccccc3)c2C1c1ccoc1 (centres undefined)	99
O=C(c1ccc(Cl)cc1Cl)n1cc2c(n1)CCOC2	100
O=C(Nc1ccc(Nc2ccccc2)cc1)c1cc(=O)c2ccccc2o1	100
COC(=O)c1c(NC(=O)c2ccc(S(=O)(=O)N3CCCCC3C)cc2)sc2c1CCN(C)C2 (centres undefined)	85
CC(C)(C)c1ccc(NC(=O)c2ccc(N3C(=O)CSCC3=O)cc2)cc1	101
CNC(=S)NCCc1ccccc1	101
CN1C(=O)C(CC(=O)Nc2ccc(F)cc2)N(Cc2ccccc2)C1=S (centres undefined)	100
Cc1cc(C(=O)N2CCN(C(c3ccccc3)c3ccccc3)CC2)no1	99
O=C(O)c1cc(-c2ccccc2)nc2ccccc12	102
O=S(=O)(c1cccs1)N1CC=C(c2ccccc2)CC1	102
CCN(C(C)=O)c1nnc(CSc2nc3ccccc3s2)s1	100
O=C(NCCCN1CCCCC1)c1ccc2c(c1)NC(=O)c1ccccc1S2	99
CCCC(=O)Nc1nnc(SCC(=O)Nc2cc(C(F)(F)F)ccc2Cl)s1	100
O=C(O)CSC(=S)Nc1cccnc1	100
Cc1ccc(CN(Cc2ccco2)C(=O)c2ccccc2)cc1	74
O=C(CC(NCCc1cc2ccccc2[nH]1)C(=O)O)c1ccc(Br)cc1 (centres undefined)	101
Cc1cc(C)c2c(=O)[nH]n(C3CCCC3)c2n1	100
O=c1cc(C(F)(F)F)nc(N2CCSCC2)[nH]1	92
C(=N\N1CCN(Cc2cccc3ccccc23)CC1)/c1ccco1	100
Cc1ccnc(SC(C(=O)O)c2ccccc2)n1 (centres undefined)	102
COc1ccc(NC(=O)c2cccs2)cc1OC	100
COc1ccc(CNC(=O)c2cn[nH]c2-c2ccc(OC)cc2)cc1	94
Cc1[nH]c2ccc(OC(F)(F)F)cc2c1CCNC(=O)c1c(Cl)cnn1C	99
CCC(=O)NC(Nc1c(C)n(C)n(-c2ccccc2)c1=O)(C(F)(F)F)C(F)(F)F	98
O=C(CC(c1ccccc1)N(C(=O)Nc1ccccc1Cl)c1ccccc1)C1CC1 (centres undefined)	91
COc1ccccc1N1CCN(S(=O)(=O)c2ccccc2)CC1	97
Cc1ccc(NC(=O)Cc2coc3ccc(C(C)C)cc23)cc1	94
COc1cc2c(cc1OC)C(C)N(C(=O)CCN1C(=O)C3C4C=CC(C4)C3C1=O)CC2 (centres undefined)	108
O=C(CSc1nc2ccccc2s1)N1CCc2ccccc21	101
c1ccc(-c2nnc(-c3ccccc3)nn2)cc1	101
C=CCN1C(=S)NC(C)(C)C=C1C	100
C/C(O)=C(\C(=O)Nc1ccccc1)C1(C(C#N)C(N)=O)CCCC1 (centres undefined)	101
CCc1ccc(CNC(=O)c2ccc(CSCc3ccc(C)cc3)o2)cc1	94
O=C1NCC(O)=C1C=Nc1ccc(C2CCCCC2)cc1	100
CS(=O)c1ccccc1O (centres undefined)	73
COc1cc(OC)cc(OCC(O)Cn2ccnc2)c1 (centres undefined)	92
CSc1ncc(-c2ccc(Cl)cc2)cn1	80
C[n+]1ccc(CCc2cc[n+](C)cc2)cc1	96
N#CC1=C(N)N(c2sc3c(c2C#N)CCCC3)C2=C(CCC2)C1(C(F)(F)F)C(F)(F)F	100
CCC(=O)NCC(c1cccs1)N1CCOCC1 (centres undefined)	107
O=C(/C=C/c1ccc(Cl)cc1)NCCCn1ccnc1	101
N#CC1CN(Cc2cccs2)CN(Cc2cccs2)C1	106
COc1ccc(-c2c(C)[nH]n3c(=O)c(Cc4ccccc4)c(C)nc23)cc1	100
CC1=Nn2c(Cn3nnc4ccccc43)nnc2SC1	86
O=C(CCCc1ccccc1)NC1CC1	100
N#C/C(=C\c1[nH]c2ccccc2c1O)C(N)=NCCc1ccccc1	97
CC1(C(=O)O)CCC2C(Br)=CC21C (centres undefined)	101
CCC(CO)NC(=O)c1ccccc1C(F)(F)F (centres undefined)	107
COC(=O)c1ccc(Oc2nc(Nc3cccc(C)c3C)nc(N3CCC(C)CC3)n2)cc1	100
O=c1c2c(-c3ccccc3)csc2nc2n1CCC2	101
O=C(COC(=O)COc1ccccc1)Nc1cccc2ccccc12	98
NCCC1COc2ccccc2O1 (centres undefined)	100
CCC(=O)n1c(SC)nc2ccccc21	99
C=C1C(c2ccc(C)cc2)=CCc2cc(C)cc(C)c21	99
Cc1cc(NC(=O)c2cc3c(s2)CCCC3)no1	96

Structures above with an NH in an aromatic ring:
mol	VACV E9 pol inh
COc1ccc(Cc2nc3ccccc3[nH]2)cc1OC	108
Cc1c(C(N)=O)sc2nc[nH]c(=O)c12	102
N#CC1=C(N)Oc2n[nH]c(-c3ccccc3)c2C1c1ccoc1 (centres undefined)	99
O=C(CC(NCCc1cc2ccccc2[nH]1)C(=O)O)c1ccc(Br)cc1 (centres undefined)	101
Cc1cc(C)c2c(=O)[nH]n(C3CCCC3)c2n1	100
O=c1cc(C(F)(F)F)nc(N2CCSCC2)[nH]1	92
COc1ccc(CNC(=O)c2cn[nH]c2-c2ccc(OC)cc2)cc1	94
Cc1[nH]c2ccc(OC(F)(F)F)cc2c1CCNC(=O)c1c(Cl)cnn1C	99
COc1ccc(-c2c(C)[nH]n3c(=O)c(Cc4ccccc4)c(C)nc23)cc1	100
N#C/C(=C\c1[nH]c2ccccc2c1O)C(N)=NCCc1ccccc1	97

Following part
mol	VACV E9 pol inh
COc1ccc(C)cc1NC(=O)c1cc(C2CC2)[nH]n1	90
Cc1cc(=O)oc(C)c1C(=O)OCC(=O)c1ccc(Cl)c(Cl)c1	100
Cc1cccc(NC(=O)c2sc3nc(-c4ccccc4)cn3c2C)n1	100
COc1ccc(/C=C/C(=O)Nc2sc3c(c2C(=O)O)CCCC3)cc1	97
CSc1c2c(c(C#N)c3nc4ccccc4n13)CCCC2	99
O=C(Nc1ccc(F)cc1)N1CCC2(CC1)C(=O)NCN2c1ccccc1	101
O=C1C=CC(=O)N1c1ccc(Br)cc1	111
O=C(COC(=O)c1ccc(O)cc1)NC(c1ccccc1)c1ccccc1	101
COC(=O)c1cc2c(C(F)(F)F)cc(-c3ccccc3)nc2s1	101
O=C(COC(=O)Cc1ccsc1)NCC1CCCCC1	99
Cc1ccc(/C(O)=C2/C(=O)C(=O)N(CCCN3CCOCC3)C23C(=O)N(C)c2ccccc23)cc1F (centres undefined)	102
FC(F)(F)c1ccccc1CN1CCN(CC2CC3C=CC2C3)CC1 (centres undefined)	102
CCSc1nc2c(cnn2-c2ccccc2)c(=O)[nH]1	92
Cc1sc2nc(SC3CCOC3=O)[nH]c(=O)c2c1C (centres undefined)	94
CC(C)(C)C(=O)CSc1ccc(Br)cc1	81
O=C(O)CN(CC(=O)O)Cc1cc2c(-c3ccccc3C(=O)O)c3cc(CN(CC(=O)O)CC(=O)O)c(=O)cc-3oc2cc1O	96
O=C(NCc1ccc2[nH]c3c(c2c1)CCCC3)c1cccs1	100
Sc1c(C=Nc2ccc(Br)cc2)sc2ccccc12	100
Nc1ccc(C(=O)OCCCc2nc3ccccc3[nH]2)cc1	100
O=C(O)c1ccc(S(=O)(=O)Nc2ccc3oc4c(c3c2)C(=O)CCC4)cc1	102
O/N=C/c1cccn1-c1ccc(Br)cc1	103
NC(=O)C1CCN(C(=O)c2cc3cc(Br)ccc3oc2=O)CC1	107
O=C(CSCC(=O)Nc1ccccc1Oc1ccccc1)Nc1ccc2ccccc2c1	99
COc1ccc(/C=C2\N=C(SC)NC2=O)cc1	98
O=C(CCCCl)Nc1ccc(C(O)(C(F)(F)F)C(F)(F)F)cc1	95
N#CCCN1C(=O)c2cccc3c(Cl)ccc1c23	95
Clc1cccc(Oc2cnc3ccccc3n2)c1	98
CCCn1nnc(NC(=O)COc2ccccc2)n1	106
CCCC(=O)Nc1ccc2oc(=O)ccc2c1	101
CCOC(=O)CSc1nc(C)cs1	100
CCOC(=O)NC(c1ccccc1F)C1CCc2ccccc2C1=O (centres undefined)	102
Cc1ccc(S(=O)(=O)NC(=O)N2CCCN(C(=O)OC(C)(C)C)CC2)cc1	99
CC1(C)NC(=O)NC1=O	99
O=S(=O)(Nc1ccccc1)N1CCCCC1	101
CC(=O)N(c1ccc(Br)cc1)C1C=CS(=O)(=O)C1 (centres undefined)	102
Cc1ccc2nc(SCc3nc4cccc(C)n4c3Br)[nH]c2c1	100
OCCn1c(-c2ccccc2)nc2ccccc21	105
CSc1nnc2nc(C)cc(C)n12	100
CCn1c(=O)c(-c2ccc3ccccc3n2)cc2cc(Cl)ccc21	107
Cc1nn(-c2ccccc2)c2sc(C(=O)NCc3ccccc3)cc12	86
COC(=O)c1ccccc1NC(=O)CSc1ccccc1	102
CCOC(=O)N1C(=O)c2ccccc2NC1(C(F)(F)F)C(F)(F)F	100
Cc1ccc(-c2cc(-c3cccs3)[nH]n2)c(O)c1	104
CCCN(CCC)S(=O)(=O)c1cccc(-c2cn3ccc(C)cc3n2)c1	106
O=C(CSc1nc2cc(Cl)ccc2s1)NCc1ccc(F)cc1	103
O=C(/C=C/OC(=O)c1ccc(Cl)cc1)c1ccc(Cl)cc1	100
N#C/C(=C1\Nc2ccccc2S1)c1sc2ccccc2c1Cl	99
S=c1[nH]cnc2scc(-c3ccccc3)c12	101
CCOc1ccc2c(c1)nc1n2C(=O)CC(c2ccccc2)S1 (centres undefined)	100
CN(C)c1cccc2c(Br)ccc(N(C)C)c12	94
N#CCCN(Cc1ccccc1)C(=O)Nc1ccccc1	97
COc1ccc2nc3sc(C(=O)N(C)c4ccc(Cl)cc4)cc3cc2c1	96
Cc1cc2ccccc2c(=O)n1CC(=O)NCCCN1CCC(C)CC1	101
COc1ccc(C2C(C(=O)N3CC(C)CC(C)C3)CCC(=O)N2c2ccc(OC)cc2)cc1 (centres undefined)	95
Cc1c(Cl)c(=O)oc2cc(OC(=O)C(C)NC(=O)OCc3ccccc3)c(Cl)cc12 (centres undefined)	101
Cc1ccc(CNC(=O)CN2C(=O)COc3cc(S(=O)(=O)N4CCC(C)CC4)ccc32)cc1	95
N#CC1=C(N)Nc2onc(-c3cccc(O)c3)c2C1c1ccccc1 (centres undefined)	100
CN1C(C(=O)N2CCCC2)=CC(c2cccs2)=NS1(=O)=O	103
COc1ccc(S(=O)(=O)N2CCc3ccccc3C2)cc1C(=O)O	99
CC1(C)CC(=O)C(C=NCc2cccnc2)=C(O)C1	100

The listing continues:
mol	VACV E9 pol inh
Cc1ccc2cc(N=Cc3ccc(O)cc3)ccc2n1	92
O=C1c2ccccc2C(=O)N1CC(=O)N(c1ccccc1)c1ccccc1	99
CC1CCCC(C)N1C(=O)CSc1nc2ccccc2o1 (centres undefined)	104
COc1nc(N)c(C#N)c(-c2ccccc2)c1C#N	98
COC(=O)c1cccc(C(=O)Oc2ccc(OC(=O)c3cccc(C(=O)OC)n3)c(Cl)c2)n1	100
